TRPV1 PAM = enhances activation of the human vanilloid receptor TRPV1; Q8NER1; TRPV1-expressing cells, Fluo-8 calcium influx, capsaicin EC20 potentiation; host cell line not named in the record; control for the full effect not named in the record; potentiation, % at 8.33 µM; 0.02% of 320,000 active; active means potentiation above 80%; inconclusive means 30% to 80%; inactive means below 30%; note: 0% is about no effect
Target sequence (Q8NER1 whole entry, looked up): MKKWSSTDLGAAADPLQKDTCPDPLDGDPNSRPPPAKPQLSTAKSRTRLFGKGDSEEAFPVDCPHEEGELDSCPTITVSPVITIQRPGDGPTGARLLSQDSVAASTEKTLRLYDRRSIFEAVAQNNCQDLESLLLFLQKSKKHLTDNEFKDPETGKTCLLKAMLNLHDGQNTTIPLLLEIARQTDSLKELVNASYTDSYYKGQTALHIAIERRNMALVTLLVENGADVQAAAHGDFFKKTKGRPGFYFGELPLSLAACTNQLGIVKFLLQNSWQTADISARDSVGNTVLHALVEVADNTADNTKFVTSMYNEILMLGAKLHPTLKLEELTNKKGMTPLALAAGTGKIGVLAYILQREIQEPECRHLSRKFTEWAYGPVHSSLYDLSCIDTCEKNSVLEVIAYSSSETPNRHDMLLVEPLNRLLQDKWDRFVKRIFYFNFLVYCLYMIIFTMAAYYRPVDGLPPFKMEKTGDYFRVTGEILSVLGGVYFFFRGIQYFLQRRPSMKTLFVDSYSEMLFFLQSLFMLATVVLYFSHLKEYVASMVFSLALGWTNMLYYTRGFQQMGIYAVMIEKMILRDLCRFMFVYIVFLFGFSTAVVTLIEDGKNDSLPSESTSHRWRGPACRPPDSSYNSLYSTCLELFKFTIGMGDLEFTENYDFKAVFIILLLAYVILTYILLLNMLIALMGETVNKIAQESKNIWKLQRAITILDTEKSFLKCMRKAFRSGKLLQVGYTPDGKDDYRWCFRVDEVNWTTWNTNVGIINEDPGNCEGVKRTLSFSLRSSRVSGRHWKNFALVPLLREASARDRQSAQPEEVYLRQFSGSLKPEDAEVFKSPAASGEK
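Fluo-8 calcium influx in TRPV1-expressing cells, kinetic read (ex 480/em 520 nm). Compound added and read 3 min for agonist activity, followed by capsaicin at EC20 final and 2 min further read for enhancement.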
TRPML1 inh = human mucolipin-1 channel inhibition; Q9GZU1; 0.02% of 390,000 active; TRPML1-inducible cells, Ca2+ dye fluorescence, FDSS; hits give low values; inhibition of EC80 agonist-evoked calcium signal; activity change, negative = inhibition, % (test concentration not listed); in the data active means activity change below about -50%; inconclusive means about -30% to -50%; inactive means above about -30%;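 note: stimulus is agonist 54-4 at its EC80 concentration; % is set by controls: 0 for no effect and ±100 for the full control effect; compound concentration not given in the record; the text of the record puts the active cut at -80%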
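Tet-induced TRPML1-DL cells loaded with Ca8 no-wash calcium dye were read kinetically on FDSS. Compound addition was followed by EC80 agonist 54-4 (4 uM final); inhibition was read over 110 s.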
Six1-Eya2 blk = Six1/Eya2 interaction inhibition. activity change, % (concentration not given with the values). Q15475+O00167. AlphaScreen GST-Six1/His-Eya2 binding, biochemical; hits give low values; control for the full effect not named in the record. 0.56% of 360,000 active; in the data active = activity change below about -65%; inconclusive = about -30% to -65%; inactive = above about -30%; note: % is set by controls: 0 for no effect and ±100 for the full control effect
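GST-Six1 + His-Eya2 (5X stock: 250/500 nM); Tris pH 8.0, 300 mM NaCl, 0.05% BSA, 0.02% Tween 20; GSH donor/Ni acceptor beads; 1 h 37 °C dark; AlphaScreen readout.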
D2 potentiator = potentiates the human D2 dopamine receptor allosterically; potentiation, % (concentration not given with the values); DiscoveRx D2 beta-arrestin cells, luminescence, 90 min; 100% = 57 uM dopamine signal; 0.23% of 360,000 active; P14416; AID 624464; active = potentiation of 50% or more; inconclusive = 30% to 50%; inactive = 30% or less;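 note: compound concentration not given in the record; tested on top of an EC20 dose of dopamine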
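PathHunter D2 cells, attached overnight at 37 deg C, received compound in DMSO plus dopamine at EC20 (50 nM final) for 90 min at 37 deg C. Beta-arrestin recruitment was read as luminescence after 1 h with detection reagent at ambient temperature.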
CtBP-E1A inh = inhibitors of CtBP/E1A interaction | AlphaScreen GST-E1A/His-CtBP binding, 1536-well; hits give low values; control for the full effect not named in the record | activity change, % (concentration not given with the values) | 0.49% of 340,000 active; in the data active means activity change below about -65%; inconclusive means about -30% to -65%; inactive means above about -30%; note: % is set by controls: 0 for no effect and ±100 for the full control effect
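Homogeneous bead-based format: GST-tagged E1A captured on glutathione donor beads, His-tagged CtBP on nickel acceptor beads; compounds precede bead addition by 2 h at 37 °C.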
TRPML1 ag = human mucolipin-1 channel agonism | Q9GZU1 | TRPML1-expressing cells, Ca2+ dye fluorescence, FDSS; host cell line not named in the record; reference of the full effect not given here | activation, % (no concentration beside the values) | 0.12% of 410,000 active | AID 624414; in the data active = activation above about 50%; inconclusive = about 30% to 50%; inactive = below about 30%; note: 0% is about no effect; the text of the record puts the active cut at 80%
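In this qHTS format, compounds were pin-transferred onto Ca8-dye-loaded TRPML1-DL cells induced with Tet overnight, and intracellular Ca2+ fluorescence was recorded kinetically for 110 s after a 10 s baseline. A subsequent 4uM final 54-4 (EC80) addition followed by a second 110 s read served as the antagonist phase.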
Starred values were filed as active, the others as inactive; ? = inconclusive; · = no result given.

A first look:
compound	TRPV1 PAM	TRPML1 inh	Six1-Eya2 blk	D2 potentiator	CtBP-E1A inh	TRPML1 ag
COc1cc(C(=O)N2CCN(c3ccccc3F)CC2)ccc1OCC(=O)N1CCOCC1	2	-6	16	0	0	0.4
Cc1ccc(-c2nc(CSCC(=O)N3CCN(c4ccccn4)CC3)c(C)o2)cc1	-17	2	5	-2	-1	0.4

The whole of this part, from the start:
compound	TRPV1 PAM	TRPML1 inh	Six1-Eya2 blk	D2 potentiator	CtBP-E1A inh	TRPML1 ag
COc1cc(C(=O)N2CCN(c3ccccc3F)CC2)ccc1OCC(=O)N1CCOCC1	2	-6	16	0	0	0.4
Cc1ccc(-c2nc(CSCC(=O)N3CCN(c4ccccn4)CC3)c(C)o2)cc1	-17	2	5	-2	-1	0.4
Cc1ccnc(NC(=O)COC(=O)C2COc3ccccc3O2)n1 (stereo unspecified)	-16	-2	2	-8	11	-0.7
COc1ccc(C(OCC(O)CNCCc2ccccc2)c2ccc(OC)cc2)cc1 (stereo unspecified)	-12	6	3	-18	2	0.4
O=C(NN1C(=O)C2C(C1=O)C1C=CC2C12CC2)c1ccccc1Cl (stereo unspecified)	11	10	3	-2	-20	0.2
O=c1c2ccccc2nc(SCc2cc([N+](=O)[O-])cc3c2OCOC3)n1-c1ccccc1	3	6	-5	-17	-12	0.8
CC(=O)Nc1ccc(NC(=S)NC(=O)c2ccc([N+](=O)[O-])c(C)c2)cc1	-16	3	-2	-8	-4	0.6
O=C(CSC1=Nc2ccccc2C2=NC(Cc3c[nH]c4ccccc34)C(=O)N12)NC1CCCCC1 (stereo unspecified)	1	2	2	-4	-8	-0.6
COc1ccccc1NC(=O)C(C)NS(=O)(=O)c1ccc(Cl)cc1 (stereo unspecified)	9	2	-3	17	6	1.3
Cc1cc(C(=O)Nc2sccc2C(N)=O)c(C)o1	·	5	-9	0	-17	-0.9
CCc1ccc(OCC(=O)Nc2ccc3oc(=O)ccc3c2)cc1	-8	3	7	-6	6	0.2
COc1ccc(C(C)NC(=O)C23CC4CC(CC(C4)C2)C3)cc1 (stereo unspecified)	-4	-8	-1	-1	0	-0.2
O=C(CSCc1ccccc1)N1CCN(S(=O)(=O)c2cccc(F)c2)CC1	-13	-6	7	-1	1	-0.3
Cc1ccc(N/C(N)=N/c2nc(CSc3ccccn3)cc(=O)[nH]2)c(C)c1	4	-7	11	-6	·	1.0
O=C(Nc1ccccc1O)c1cccc(NC(=O)c2ccco2)c1	4	-3	-6	6	2	3.1
CCC1Oc2ccccc2N(CC(=O)Nc2ccc3c(c2)OCCO3)C1=O (stereo unspecified)	5	-7	5	-10	9	0.2
COc1ccc(OC)c(NS(=O)(=O)c2ccc(NC(C)=O)cc2)c1	4	-1	0	-7	2	-0.7
O=C(NC1CC2CCCC(C1)N2C(=O)Nc1ccc(Cl)c(C(F)(F)F)c1)C1CC1 (stereo unspecified)	-12	22	1	-30	-4	-0.3
CC(C)OC(=O)c1cc(C(=O)c2cc(Br)ccc2O)coc1=N	-19	0	3	3	-11	-0.4
COc1ccc2sc(NCc3ccccc3)nc2c1	8	-6	1	-6	·	0.6
O=S1(=O)CCC(NC(=S)Nc2ccc3ccccc3c2)C1 (stereo unspecified)	-2	7	3	-8	10	0.0
COc1ccc(S(=O)(=O)Oc2ccc3cccc(N)c3c2)cc1	·	-4	-16	12	-8	1.2
Cc1c(-c2ccccc2)[n+](=O)c2c(n1[O-])CCC2	?	2	4	1	0	0.5
CN(C)C1=NCCN1CCc1ccccc1	-16	3	27	0	0	-0.6
C=CCN(Cc1cc(OC)ccc1OC)S(=O)(=O)N(C)C	·	-12	10	-4	-5	1.0
O=C(O)C1CC=CCC1C(=O)NCCc1ccccc1 (stereo unspecified)	6	7	2	-12	11	3.5
CCn1c(NC)cc(=O)n(C)c1=O	-1	-1	3	-17	3	-0.5
Cc1cc(NC(=O)Cn2nc(C(F)(F)F)c3c2CCCC3)no1	11	-15	-6	-22	-1	0.1
CCc1ccc(NC(=O)NC(C)c2ccc3c(c2)OCO3)cc1 (stereo unspecified)	2	-9	16	-10	0	1.2
O=C(CSc1nc2ccccc2c(=O)[nH]1)N1CCOCC1	10	1	1	-11	9	0.5

5 entries already listed, sorted by number of heavy atoms, highest first:
compound	TRPV1 PAM	TRPML1 inh	Six1-Eya2 blk	D2 potentiator	CtBP-E1A inh	TRPML1 ag
CCC1Oc2ccccc2N(CC(=O)Nc2ccc3c(c2)OCCO3)C1=O (stereo unspecified)	5	-7	5	-10	9	0.2
COc1ccc(OC)c(NS(=O)(=O)c2ccc(NC(C)=O)cc2)c1	4	-1	0	-7	2	-0.7
Cc1cc(NC(=O)Cn2nc(C(F)(F)F)c3c2CCCC3)no1	11	-15	-6	-22	-1	0.1
O=S1(=O)CCC(NC(=S)Nc2ccc3ccccc3c2)C1 (stereo unspecified)	-2	7	3	-8	10	0.0
CN(C)C1=NCCN1CCc1ccccc1	-16	3	27	0	0	-0.6

Additional entries:
compound	TRPV1 PAM	TRPML1 inh	Six1-Eya2 blk	D2 potentiator	CtBP-E1A inh	TRPML1 ag
Cc1ccc(CS(=O)Cc2ccc(C(=O)NCc3ccccc3)o2)cc1 (stereo unspecified)	-18	-2	0	-6	1	-0.4
O=C(CCN1C(=O)c2ccccc2C1=O)Nc1ccc(-c2cn3ccsc3n2)cc1	2	?	-14	0	-12	-0.2
O=c1cc(N2CCOCC2)[nH]c(=O)n1-c1ccc(Cl)cc1	1	-11	8	-12	-23	0.3
Cc1ccc(S(=O)(=O)c2c(O)c3ccc(C(=O)O)cc3[nH]c2=O)cc1	3	17	0	-11	1	-0.9
CC1CCCCC1NC(=O)CCCn1c(=S)[nH]c2ccsc2c1=O (stereo unspecified)	-2	-4	2	-2	0	0.3
Clc1ccc2[nH]c3c(NCCN4CCOCC4)ncnc3c2c1	3	1	-3	0	-12	0.0
CC(C)CN(C(=O)c1ccc(N2CCCC2=O)cc1)c1c(N)n(Cc2ccccc2)c(=O)[nH]c1=O	-8	-5	-1	-2	-19	1.9
Cc1cccc(NC2=C(C#N)C(=O)NC3(CCCC3)S2)c1	9	13	-3	9	·	3.9
CCOC(=O)C1=NOC(Cn2cc(C#N)c(=O)n(C)c2=O)C1 (stereo unspecified)	-13	10	0	2	-18	-0.5
O/N=C(\c1ccc2c(c1)OCCO2)C1CCCCC1	-11	-7	-1	5	-1	2.0
COc1ccc(S(=O)(=O)n2nc(OC(=O)c3ccccc3Br)cc2N)cc1	1	-12	-6	-19	-3	4.5
COc1ccc(/C=C2\SC(=S)N(CCC(=O)Nc3cccc(C(=O)O)c3)C2=O)cc1	?	·	-2	0	·	·
Cc1cccc(N2CCN(S(=O)(=O)c3cnc[nH]3)CC2)c1C	1	3	-1	-5	-1	-0.7
C=CCNc1ncnc2c1ncn2[C@H]1CN(Cc2ccc3c(c2)OCO3)C[C@@H](CO)O1	·	-6	2	-8	2	0.0
O=C(CCSc1nc(-c2ccco2)cc(C(F)(F)F)n1)NCc1ccccn1	7	3	-6	-5	0	5.2
CC1CCN(c2ccccc2NC(=O)c2cc([N+](=O)[O-])ccc2N2CCOCC2)CC1	3	6	-27	-21	-6	1.6
COc1ccc(CCNS(=O)(=O)c2ccc(C3CNC(=O)C3)cc2)cc1OC (stereo unspecified)	26	11	3	3	10	0.9
Cc1nnc(SCC(=O)Nc2ccc3c(c2)OCCO3)n1N	-9	-5	10	3	-1	3.9
Cc1ccccc1C(C(=O)NC1CCCC1)N(C(=O)Cc1cccs1)c1ccc2c(c1)OCCO2 (stereo unspecified)	-22	-3	-13	-21	7	0.9
O=C(CCCN=C1NS(=O)(=O)c2ccccc21)OCC(=O)c1ccccc1Cl	-11	3	5	-11	-3	-0.2
Cc1ccc2nc(SCC(=O)NC3CCCc4ccccc43)[nH]c2c1 (stereo unspecified)	2	-4	4	-11	13	1.3
Cc1cccc(C(=O)Nc2cccc(C(=O)N/N=C/c3ccncc3)c2)c1	11	-4	-5	1	-10	3.2
CCCCn1c(N)c(C(=S)NC(=O)CC(C)C)c(=O)n(C)c1=O	0	-6	-3	-21	-10	0.0
CC1CCN(CC(=O)Nc2nc(-c3ccccc3)cs2)CC1	-7	12	0	-8	0	1.7
CC(CN(C)C)CN1c2ccccc2Sc2ccccc21 (stereo unspecified)	0	22	-14	-33	-14	2.3
CC(Cc1ccccc1)NC(=O)CSc1nc2nc3c(cc2c(=O)n1-c1ccccc1)COC(C)(C)C3 (stereo unspecified)	-3	3	-1	-1	7	0.3
Cc1cc(-c2sccc2Br)nc(-n2cccc2)n1	20	39	?	1	-23	1.8
Cc1nn(Cc2ccccc2)c(C)c1NC(=O)c1cc2nc(-c3ccco3)cc(C(F)(F)F)n2n1	23	-7	?	-6	?	-0.4
O=C(CN1C(=O)NC2(CCCC2)C1=O)Nc1ccc(F)cc1	-13	-2	2	1	9	-0.7
Cc1cc(C(=O)COC(=O)c2ccc(NC(=O)CC#N)cc2)c(C)n1CC(F)(F)F	·	2	-5	-4	-3	0.3
COc1ccccc1-c1noc2ncnc(Nc3cccc(C)c3)c12	-24	3	2	-6	9	0.0
O=C(OCC(=O)C12CC3CC(CC(C3)C1)C2)c1ccc(O)cc1O	9	61	-16	?	-15	2.7
COc1ccc(S(=O)(=O)N2CCC(C(=O)N[C@@H](C)C(=O)NCc3cccc(OC)c3)CC2)cc1	-7	-11	0	-1	3	-1.1
Cc1cc(C)n(S(=O)(=O)c2cc(C(=O)O)c(Cl)cc2Cl)n1	24	8	5	-5	-7	0.1
CNC[C@@H]1OCc2ccccc2-c2ccccc2C(=O)N([C@H](C)CO)C[C@@H]1C	·	-12	-1	-2	-4	-0.3
CCOc1ccc(NC(=S)N2CCC(NC(=O)c3ccccc3)CC2)cc1	-6	-11	4	-4	2	0.2
CC(C)(C)OC(=O)N1CCN(C(=O)Cn2cc(CCO)nn2)CC1	-5	25	5	-11	0	1.2
CN(C)c1nc(OCC(=O)NC(C)(C)C)nc(N(C)C)n1	28	7	0	-9	2	-0.8
Cc1ccc(C(C)C)c(OCCNC(=S)Nc2cccc3ccccc23)c1	?	-11	-24	-12	-18	2.0
CCCOc1cccc(C2C(C(=O)c3ccco3)=C(O)C(=O)N2c2nnc(C)s2)c1 (stereo unspecified)	5	-28	-3	-10	-14	29
O=C(N/N=C/c1ccc([N+](=O)[O-])o1)c1cn(-c2ccccc2)nc1-c1ccc(F)cc1	-1	2	-17	25	1	-0.3
CC(=O)c1cccc(OCC(O)CNCCc2ccc(Cl)cc2)c1 (stereo unspecified)	14	11	0	-32	5	0.5
CCNC(=O)C1CCCN(C(=O)Cc2cccs2)CC1 (stereo unspecified)	·	·	7	-2	9	-0.2
COc1cc(OC)cc(C(=O)Nc2ccc(S(=O)(=O)N(C)C)cc2)c1	0	0	-4	2	2	0.9
